gsp ag = qHTS for Agonist of gsp, the Etiologic Mutation Responsible for Fibrous Dysplasia/McCune-Albright Syndrome: qHTS; gsp mutant cells, cAMP HTRF, 30 min; control for the full effect not named in the record; Potency, µM (series often up to 76.9 µM), without a hit: at the highest dose activation (cAMP increase), most hits filed as activators; hit rate 0.13% among 340,000; AID 624287, 2012; active = well fitted activation curve with a large enough effect; inconclusive = small, poorly fitted or top-dose-only effect, or another doubt; inactive = no such curve, though single readings can be large or run the other way; cell line not stated here;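 further: phosphodiesterase inhibitor Ro 20-1724 added with compounds to block cAMP breakdown; potency means the concentration at half of the fitted maximal effect; nearly all actives have a fitted effect of over 60% in size; about a fifth of the inactives were tested at one dose only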
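Cells in DMEM/10% FBS with G418 were pretreated with compounds in DMSO plus […] (300 uM stock) for 30 min at 37C. cAMP was measured by HTRF (cAMP-d2 plus anti-cAMP antibody-K) after 30 min at room temperature.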
Sfp PPTase inh = qHTS Assay for Inhibitors of Bacillus subtilis Sfp phosphopantetheinyl transferase (PPTase); 4'-phosphopantetheinyl transferase ffp (Bacillus subtilis), Q9F4F7; Biochemical Sfp PPTase activity, qHTS; Potency, µM, inactives show max response, negative = inhibition, usual class: inhibitors; hit rate 3.5% among 310,000; AID 1490, 2009; active means well fitted inhibition curve with a large enough effect; inconclusive means small, poorly fitted or top-dose-only effect, or another doubt; inactive means no such curve, though single readings can be large or run the other way;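 further: the enzyme is Sfp with the accession as filed and its product quenches rhodamine fluorescence; potency means the concentration at half of the fitted maximal effect; 0% = enzyme reaction without inhibitor and -100% = no enzyme wells; top concentration of the series not given in the record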
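Buffer: 50 mM Hepes-Na pH 7.6, 10 mM MgCl2, 0.01% Nonidet P-40, 0.01% BSA. Enzyme 15 nM, pre-exposed to compound 15 min; substrates then added and fluorescence change tracked over 30 min.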
D2 potentiator = Beta-Arrestin HTS for Positive Allosteric Modulators of the Human D2 Dopamine Receptor: Potentiators. D(2) dopamine receptor (Homo sapiens), P14416. potentiation, % (test concentration not listed). hit rate 0.23% among 360,000. AID 624464, 2012. DiscoveRx D2 beta-arrestin cells, luminescence, 90 min; 100% = 57 uM dopamine signal; active = potentiation of 50% or more; inconclusive = 30% to 50%; inactive = 30% or less;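 further: compound concentration not given in the record; tested on top of an EC20 dose of dopamine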
Target sequence (P14416 whole entry, looked up): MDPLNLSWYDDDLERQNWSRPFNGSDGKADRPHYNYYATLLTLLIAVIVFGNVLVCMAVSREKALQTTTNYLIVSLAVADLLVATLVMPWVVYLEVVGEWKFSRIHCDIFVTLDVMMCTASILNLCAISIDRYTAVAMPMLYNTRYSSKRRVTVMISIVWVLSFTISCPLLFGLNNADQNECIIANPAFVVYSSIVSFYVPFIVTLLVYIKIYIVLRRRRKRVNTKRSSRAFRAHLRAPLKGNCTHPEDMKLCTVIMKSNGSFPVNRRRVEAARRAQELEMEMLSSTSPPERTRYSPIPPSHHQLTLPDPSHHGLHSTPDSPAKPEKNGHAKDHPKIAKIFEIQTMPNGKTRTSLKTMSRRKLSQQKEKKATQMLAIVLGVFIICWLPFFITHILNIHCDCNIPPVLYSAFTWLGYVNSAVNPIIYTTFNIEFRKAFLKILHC
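PathHunter beta-arrestin assay in DiscoveRx D2 cells. Compounds were added with an EC20 of dopamine (50 nM final) for 90 min at 37 deg C. Luminescence was read 1 h after detection reagent, with 57 uM dopamine as the EC100 control.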
TRPV1 PAM = HTS Assay for Compounds that Act as Potentiators of the Vanilloid Receptor 1; Transient receptor potential cation channel subfamily V member 1 (Homo sapiens), Q8NER1; TRPV1-expressing cells, Fluo-8 calcium influx, capsaicin EC20 potentiation; host cell line not named in the record; control for the full effect not named in the record; potentiation, % at 8.33 µM; hit rate 0.02% among 320,000; active means potentiation above 80%; inconclusive means 30% to 80%; inactive means below 30%; further: 0% is about no effect
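Cells expressing TRPV1 were dye-loaded with Fluo-8 and read kinetically: 10 s baseline, 3 min after compound (agonist portion), then 2 min after EC20 capsaicin (allosteric enhancer portion). Calcium-bound dye fluorescence at 480/520 nm.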
gsp antagonist = qHTS for Antagonists of gsp, the Etiologic Mutation Responsible for Fibrous Dysplasia/McCune-Albright Syndrome: qHTS; gsp-mutant cells, cAMP HTRF, 30 min; control for the full effect not named in the record; Potency, µM (titrated, usually from 76.9 µM), for the others: at the top dose activity change, negative = inhibition, actives largely listed as inhibitors; hit rate 0.4% among 340,000; AID 624288, 2012; active = falling curve of any shape with a large fitted effect; inconclusive = falling curve, mostly with a smaller effect; inactive = flat or rising curve; cell line not stated here;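 further: intracellular cAMP measured with PDE inhibitor Ro 20-1724 present during compound exposure; potency means the concentration at half of the fitted maximal effect; on the % scale 0 is the no-effect control and ±100 the full control effect; nearly all actives have a fitted effect of over 65% in size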
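Measurement of cellular cAMP by homogeneous time-resolved fluorescence following a 30 min compound exposure at 37C. The PDE inhibitor […] was present throughout; the assay buffer was DPBS with 0.05% BSA and 0.005% Tween 20.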
ClpP mod = qHTS Assay for Activators of ClpP. purified B. subtilis ClpP, FRET peptide cleavage, 20 min. Potency, µM (top dose mostly 57.5 µM), for inactives: at the highest dose activity change, negative = active. hit rate 1.9% among 340,000. AID 651965, 2013; active = well fitted falling curve with a large enough effect; inconclusive = small, poorly fitted or top-dose-only effect; inactive = no such curve, though single readings can be large or run the other way; further: potency means the concentration at half of the fitted maximal effect; the source files actives as falling curves though it sought activators and does not explain the sign; nearly all actives have a fitted effect of over 65% in size; many hits overshoot -100%
Target sequence (P80244 whole entry, looked up): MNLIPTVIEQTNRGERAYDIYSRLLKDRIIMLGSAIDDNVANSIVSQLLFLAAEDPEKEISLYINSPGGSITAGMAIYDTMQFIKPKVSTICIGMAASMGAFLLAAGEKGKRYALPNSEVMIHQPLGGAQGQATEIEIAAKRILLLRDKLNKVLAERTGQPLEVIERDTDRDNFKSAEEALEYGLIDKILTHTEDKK
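FRET quenching reversal measured ClpP activation: 10 microg/mL B. subtilis ClpP at pH 8 with the FRET-FV decapeptide, read at 430 nm after 320 nm excitation. The 20-min minus 0-min signal was scaled between DMSO/no-enzyme wells and ADEP (5.8 microM final).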
Menin-MLL FL inh = qHTS Assay for Inhibitors Targeting the Menin-MLL Interaction in MLL Related Leukemias: Competition With Fluorescein Labeled MLL-derived Peptide | FP activity change, % at 61.4 µM | 290,000 tested, under 10 active | Fluorescence polarization, fluorescein-MLL peptide displacement from menin; inconclusive = falling polarisation curve, or a change in total fluorescence; inactive = total fluorescence flat and polarisation flat or rising; no compound was filed as active; the % refers to the polarisation; negative = inhibition;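 further: % of control where 0% means no effect; inhibitors lower the polarisation; unlabelled MLL peptide was the positive control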
* = called active by the depositor; ? = inconclusive; . = no result given; [ ] = remark or other dose. No enrichment for hits; overall some 5.1% were active at least once.

SMILES	gsp ag	Sfp PPTase inh	D2 potentiator	TRPV1 PAM	gsp antagonist	ClpP mod	Menin-MLL FL inh
COC(=O)Cc1c(C)nc2nc(-c3ccc(OC)cc3)[nH]n2c1=O	3%	4%	-8	0	5%	-21%	.
CC(C)=CC(=O)OCC(=O)Nc1ccc(F)cc1Cl	5%	-12%	-13	-4	1%	-2.3%	0.7
COc1ccccc1CN1CCC(n2nccc2NC(=O)CCOc2ccccc2)CC1	-1%[15.4 µM]	10%	-35	-8	4%	0.3%	.
O=C1C2CC=C(Cl)CC2C(=O)N1CCc1ccccc1 (stereo unspecified)	0%	0%	-6	-3	18%	-3.0%	5.7
O=C(NCc1ccc(F)cc1F)c1cc(COc2c(F)cccc2F)on1	0%[15.4 µM]	0%	1	-4	9%	18µM*	3.1
COCCn1c(C)cc(C(=O)CSc2nnc3ccccn23)c1C	?	10%	-8	-2	3%	-1.2%	-7.4
COc1cc2[nH]c(=S)n(N(C(C)=O)C(C)=O)c(=O)c2cc1OC	33%	-18%	1	-1	-9%	-0.3%	0.5
Cc1ccc([C@H]2C[C@H](O)[C@@H](n3cc(C4CC4)nn3)CN2C(=O)C2CCCCC2)cc1	-12%	.	-2	.	.	1.8%	.
O=C(NCc1ccccc1F)C1CCCN1C(=O)NC1CCCCC1 (stereo unspecified)	1%	14%	-7	12	4%	1.3%	3.0
Cc1ccc2c(c1)N(CC(=O)N1CCc3ccccc3C1)C(=O)CO2	42%	4%	-10	-8	-16%	-1.2%	0.8
O=C(NC(NC(=S)Nc1cccc(Cl)c1)C(Cl)(Cl)Cl)OCc1ccccc1 (stereo unspecified)	12%	14%	-26	9	3%	-0.2%	0.3
CCOC(=O)c1sc(=S)n(C)c1NC(=O)c1ccccc1C	12%	22µM*	-2	16	-4%	-4.2%	-0.8
CCn1nccc1C(=O)Nc1ccc(Cl)c(Cl)c1	?	11%	9	-3	-12%	1.2%	-1.2
CC(C)(C)c1ccc(C(=O)NC(=S)N2CCCC2)cc1	25%	4%	-15	-19	1%	-3.1%	.
CC(=O)c1c(C)oc2ccc(NS(=O)(=O)c3ccc(F)cc3C)cc12	12%[15.4 µM]	18%	-6	4	25µM*	.	-0.4
COc1ccc(OC)c(Cc2nnc(CCC(=O)N3CCC(N4CCCCC4)CC3)o2)c1	?	17%	-1	6	0%	.	0.5
O=C(O)C1CCN(C(=O)c2cc(F)cc3c2OCOC3)CC1	-3%[15.4 µM]	5%	-17	9	-1%	0.4%	-1.4
C/C(=N\NC(=O)c1ccc(C)cc1C)c1ccc2c(c1)OCO2	3%	4%	-8	-16	-12%	-2.1%	1.5
Cc1cccc(Nc2ncnc(N)c2[N+](=O)[O-])n1	?	28%	-5	-18	4%	.	1.9
O=C(CCS(=O)(=O)c1ccc(Cl)cc1)Nc1ccc(F)cc1	2%[15.4 µM]	10%	-8	-25	5%	.	-2.9
CCCCCCCOc1ccc(C2CC(=O)N(C)C2=O)cc1 (stereo unspecified)	-4%[15.4 µM]	4%	-5	25	5%	-6.2%	0.1
COc1ccc(OC)c(N2Cc3ccccc3C2)c1	-27%	-26%	14	9	-3%	-4.6%	2.4
O=C(O)COc1ccc(/C=N/n2c(COc3ccccc3)nc3ccccc3c2=O)cc1	1%	26%	8	5	-20%	-2.4%	0.3
COc1ccccc1CNC(=O)C1CCCN1S(=O)(=O)c1cccc2cccnc12 (stereo unspecified)	2%	-5%	-11	?	-3%	1.7%	-2.7
O=[N+]([O-])c1ccc(O)c(/C=N/Nc2nc3ccccc3[nH]2)c1	-52%[inhibitor]	12%	-14	-5	-18%	-0.9%	4.3
Next section:
SMILES	gsp ag	Sfp PPTase inh	D2 potentiator	TRPV1 PAM	gsp antagonist	ClpP mod	Menin-MLL FL inh
N#Cc1ccc(-c2csc(NC3=NCCCCC3)n2)cc1	?	-11%	-5	-20	-23%	?	2.9
Cc1cc(-c2nnc(SCC(=O)Nc3nccs3)o2)no1	-25%	7%	7	2	10%	1.0%	1.5
CCCNS(=O)(=O)c1ccc(CCC(=O)N2CCC(C)CC2)cc1	-1%	5%	4	-11	7%	3.5%	0.6
CC(=O)CCSc1ncnc2sc(-c3ccccc3)cc12	?	10%	-5	-7	-22%	0.2%	.
CC1=CCC2C(=O)N(c3cccc(C(=O)Nc4ccc(Cl)cc4)c3)C(=O)C2C1 (stereo unspecified)	30%	20%	-1	-13	-36%	0.8%	-1.6
O=C(COc1ccc(Cl)cc1)NCC(=O)N1CCC2(CC1)NCCc1[nH]cnc12	?	7%	-7	11	8%	0.1%	.
COc1cccc(NC(=O)[C@H](C)NC(=O)C2CCN(S(=O)(=O)c3ccc(C)cc3)CC2)c1	-13%[15.4 µM]	15%	-6	3	-4%	.	-1.2
Cc1cc(NC(=O)C2CCCN2C(=O)Nc2cccc(Cl)c2)ccc1-n1cnnn1 (stereo unspecified)	?	10%	-30	0	-11%	-0.6%	3.5
C/C(=N\NC(=O)c1cc(Br)ccc1O)c1ccccn1	-16%	13%	10	-12	3%	?	4.3
COc1ccc(/C=N/Nc2ccc([N+](=O)[O-])cc2S(=O)(=O)N2CCN(C)CC2)cc1	26%[15.4 µM]	6%	-13	-5	7%	0.7%	1.9
CCC(=O)Nc1ccc(S(=O)(=O)N2CCc3ccccc3C2)cc1	?	-8%	-1	.	2%	-4.7%	3.9
FC(F)(F)c1nc2ccccc2n2c(-c3ccc(Cl)cc3Cl)nnc12	?	21%	-35	2	-3%[15.4 µM]	?	3.6
C/C(=N\N1CCN(C)CC1)c1ccc(OC(F)F)cc1	-6%	23%	-4	18	16%	0.9%	-2.7
O=C(CS(=O)(=O)c1cn(Cc2cccc(F)c2)c2ccccc12)N1CCCCC1	-15%	4%	1	-4	14%	-1.3%	-7.2
O=C(COC(=O)COc1cc(Cl)c(Cl)cc1Cl)NC1CC1	-1%[15.4 µM]	.	-28	.	0%	-2.0%	.
O=S(=O)(CCc1ccncc1)C1Cc2cccc3cccc1c23 (stereo unspecified)	?	0%	-13	-21	-1%	.	-1.4
Cc1cc(NC(=O)CCC(=O)N(c2ccccc2)C(C(=O)NC2CCCC2)c2ccccc2C)no1 (stereo unspecified)	16%[15.4 µM]	22%	-3	16	-4%	.	-2.0
COc1cc(/C=C(\C#N)c2nc3ccccc3[nH]2)ccc1Oc1ccc([N+](=O)[O-])cn1	-1%	-11%	10	-1	14%	-3.2%	?
Cc1ccc(NC(=O)CN(C)C(=O)c2ccccn2)cc1	14%[15.4 µM]	.	0	4	2%	-6.7%	.
Cc1ccc(/C=C/C(=O)NCc2cccs2)c(C)c1	?	19%	1	-13	-8%	.	1.9
COc1ccc(C2=NO[C@H]3C[C@](C(=O)NC(C)C)(S(=O)(=O)c4ccccc4)C[C@@H]23)cc1	9%	11%	-5	-5	7%	-3.8%	-6.3
NC(=S)NN=Cc1ccc(-c2ccc(S(=O)(=O)Nc3ncccn3)cc2)o1	27%[15.4 µM]	.	-20	.	-13%	-3.3%	.
NC(=O)Cc1c[nH]c2cccc(O)c12	-6%	-22%	25	12	-15%	-1.2%	2.5
COC(CNC(=O)CCc1c(C)nc2c(-c3ccc(F)cc3)c(C)nn2c1C)OC	2%	5%	-19	-14	-3%	-1.7%	-6.8
CCCCSCCCNC(=O)Nc1ccc(C)c(C)c1	5%[15.4 µM]	11%	-3	-21	-6%	-5.6%	4.6
Other records
SMILES	gsp ag	Sfp PPTase inh	D2 potentiator	TRPV1 PAM	gsp antagonist	ClpP mod	Menin-MLL FL inh
COc1ccc(C(=O)NNC(=O)c2ccncc2)cc1[N+](=O)[O-]	?	16%	-8	0	5%	.	-0.5
COc1ccc(N(CC(=O)Nc2cccc(SC)c2)S(C)(=O)=O)cc1	-16%	7%	-9	2	-4%	-0.4%	1.7
CCCCn1c(Cn2nc(C(=O)O)c3ccccc3c2=O)nc2cc(S(N)(=O)=O)ccc21	-30%[inhibitor]	16%	0	-2	7%	.	?
Cc1ccc(C)n1-c1ccc(C(=O)NN)cc1	14%[15.4 µM]	-1%	-7	3	16%	1.5%	1.2
CCc1ccccc1NC(=O)CCN1C(=O)C2CC=CCC2C1=O (stereo unspecified)	14%	9%	-7	5	16%	-0.7%	-1.2
COc1ccc(C(=O)N/C(=C\c2ccco2)C(=O)OCc2ccco2)cc1	2%[15.4 µM]	7%	-1	22	-32%	0.7%	8.5
O=C(CS(=O)(=O)c1ccc(Cl)cc1)N1CCN(c2ccccc2)CC1	2%	.	-6	.	.	-0.8%	.
Cc1cc(C)n(CCCNC(=O)C(C)(C)Oc2ccc(Cl)cc2)n1	-17%	.	-13	-3	-4%	-1.9%	.
CCOC(=O)N1CCN(CC(O)COCC2=CCC3CC2C3(C)C)CC1 (stereo unspecified)	2%	79µM*	-34	1	-4%	0.8%	2.3
CC(=O)NCCc1ccc(S(=O)(=O)Nc2ccc3c(c2)OCCO3)cc1	16%	.	-7	.	4%	.	.
Cc1cc(C)cc(-n2c(C)cc(/C=N/NC(=O)c3ccncc3)c2C)c1	-28%	-2%	-2	-25	-9%	.	-0.1
O=C(O)Cc1ccc(NC(=O)c2cnccn2)cc1	0%	-13%	2	-4	-11%	.	-0.3
Cc1ccc(C(=O)Nc2ccc(CC(=O)O)cc2)o1	-6%	9%	-6	-12	12%	3.2%	-1.4
O=C(c1cc(Cl)ccc1Cl)N1CCN(Cc2ccccc2)CC1	8%	0%	20	-14	6%	0.2%	-1.3
Cc1cc(C(=O)CCC(=O)N2CCN(c3ccccc3F)CC2)c(C)s1	-111%[inhibitor]	12%	-9	-8	-22%	0.2%	5.1

Screening data from PubChem.
